VDR inhibitor: blocks the human vitamin D receptor; P11473; Potency, µM, inactives show max response, negative = inhibition, usual class: inhibitors; VDR-SRC2-3 peptide fluorescence polarization, 2 h; 400,000 compounds, 0.93% hits; AID 504847; active = well fitted inhibition curve with a large enough effect; inconclusive = small, poorly fitted or top-dose-only effect, or another doubt; inactive = no such curve, though single readings can be large or run the other way; note: series mostly up to about 120 µM
Target sequence (P11473 whole entry, looked up): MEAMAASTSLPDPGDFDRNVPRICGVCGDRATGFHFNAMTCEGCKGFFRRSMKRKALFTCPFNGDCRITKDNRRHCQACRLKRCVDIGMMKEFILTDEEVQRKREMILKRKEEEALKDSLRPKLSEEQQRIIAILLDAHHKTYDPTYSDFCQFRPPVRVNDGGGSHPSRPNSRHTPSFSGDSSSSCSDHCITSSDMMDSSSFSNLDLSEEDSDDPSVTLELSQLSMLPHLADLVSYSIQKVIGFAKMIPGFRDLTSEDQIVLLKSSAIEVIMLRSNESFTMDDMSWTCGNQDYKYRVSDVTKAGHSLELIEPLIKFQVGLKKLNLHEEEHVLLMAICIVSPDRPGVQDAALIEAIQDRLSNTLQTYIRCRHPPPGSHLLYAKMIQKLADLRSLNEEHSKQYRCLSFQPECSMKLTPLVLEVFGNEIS
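Signal is fluorescence polarization, reporting how far test compounds block the interaction of VDR with the SRC2-3 coregulator peptide after a 2 h room-temperature incubation.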
The depositor's hits bear a star; ? = inconclusive; & = joins results of further samples. % is set by controls: 0 for no effect and ±100 for the full control effect; potency is the fitted concentration of half-maximal effect. This is a subset; count on the stated rates, not on these rows.

SMILES	VDR inhibitor
CNS(=O)(=O)c1cn(CC(=O)N(C)Cc2ccccc2)cc1S(=O)(=O)NC	3%
COc1ccc(S(=O)(=O)N2CCCCC2)cc1NC(=O)c1ccc(C)cc1	-6%
COc1ccc(OC)c(NC(=O)CSc2n[nH]c(-c3cccnc3)n2)c1	-14%
COc1cccc(CC(=O)OCc2csc(CC(=O)Nc3ccccc3C)n2)c1	-30%
CCOc1ccc(CNC(=O)c2cnc3sc(N4CCCCCC4)nn3c2=O)cc1OC	9%
COc1ccc(Br)cc1CNC(=O)CN1C(=O)c2cccnc2Oc2ccc(C)cc21	5%
O=C(CSc1nnc(Cc2cccs2)n1-c1ccccc1)NCc1ccc2c(c1)OCO2	13%
CCOCCCNC(=O)C(c1ccc(C)cc1)N(Cc1ccc2c(c1)OCO2)C(=O)c1ccccc1O (configuration not stated)	-4%
Cc1ccc(CCNC(=O)C2CCN(S(=O)(=O)c3ccc4nc5c(c(C(=O)O)c4c3)CCCC5)CC2)cc1	4%
CCOc1ccc2oc(C(=O)OCC(=O)NC3CC3)c(C)c2c1	3%
Cc1nc(NCCc2ccc(F)cc2)c2nnn(Cc3ccccc3)c2n1	-6%
COC(=O)c1cc(C(=O)OCC(=O)Nc2ccc(N3CCOCC3)cc2)cc([N+](=O)[O-])c1	-3%
Cn1c(=O)c2[nH]c(CCCc3nc4ccccc4[nH]3)nc2n(C)c1=O	0%
CCOC(=O)c1cc2c(=O)n3ccccc3nc2n(CCOC)c1=NC(=O)c1ccncc1	4%
COc1ccc(C2(C(=O)Nc3cc(C)on3)CCOCC2)cc1	9%
CC(=O)c1c(C)n(C)c2ccc(OC(=O)c3ccc([N+](=O)[O-])cc3)cc12	1%
N#Cc1ccc(OCc2nnc(SCC(=O)N3CCCc4ccccc43)n2-c2ccccc2)cc1	-23%
CCc1c(C)c2ccc(O)c(CN3CCN(c4ccc(OC)cc4)CC3)c2oc1=O	14%
O=C(O)CCC(=O)N1N=C(c2ccc(Br)cc2)CC1c1ccc(Br)cc1 (configuration not stated)	2%
O=C(Nc1ccc(S(=O)(=O)NCc2ccco2)cc1)c1ccc2ccccc2n1	13%
O=C(/C=C/c1cccc(F)c1)OCC(=O)N1CCCC1	-7%
Cc1cc(C)cc(-n2c(N)c(C(=O)Nc3c(C)n(C)n(-c4ccccc4)c3=O)c3nc4ccccc4nc32)c1	-29%
COc1cc(-c2nc(S(=O)(=O)c3ccc(C)cc3)c(N3CCOCC3)o2)cc(OC)c1OC	79µM*
Cn1c(=O)n(C)c2cc(NC(=O)COc3ccccc3)ccc21	-14%
CN(C)c1ccc(C=NN2CCCCCC2)cc1	5%
Cn1c(COc2ccccc2)nnc1SCC(=O)NC1CCCC1	6%
CCC(C)n1c(=S)[nH]c2c(sc3ccc([N+](=O)[O-])cc32)c1=O (configuration not stated)	-26%
Cc1ccc(NC(=O)Cc2n[nH]c(=S)n2C)cc1	15%
COc1ccc(NC(=O)c2cc3c(s2)-c2c(C)cccc2OC3)c(OC)c1	8%
O=C(Nc1cc(C(F)(F)F)ccc1N1CCCCC1)c1ccco1	-2%
O=C(O)CSc1ncnc2c1sc1nc(-c3ccccc3)c3c(c12)CCC3	-11%
Cc1ccccc1NC(=S)N1CCOCC1	-3%
CCOC(=O)CNC(=O)CSc1nnc(COc2ccc(Cl)cc2)n1CC	4%
COc1cccc(C(Nc2ccccn2)c2oc(CO)cc(=O)c2O)c1 (configuration not stated)	?
CCOC(=O)c1c(S(=O)(=O)N2CCCC(C(=O)Nc3ccc(OCC)cc3)C2)c(C)n(C)c1C (configuration not stated)	11%
CC1(C)NC(=O)N(CC(O)COc2ccccc2-c2ccccc2)C1=O (configuration not stated)	-16%
COc1cc(C2C=C(C34CC5CC(CC(C5)C3)C4)NC(=S)N2)cc(OC)c1OC (configuration not stated)	-8%
CSc1cccc(CN2CCCC(CNC(=O)c3ccc(F)cc3)C2)c1 (configuration not stated)	-12%
O=C(COC(=O)C1CCCN1C(=O)C12CC3CC(CC(C3)C1)C2)c1ccc(Br)cc1 (configuration not stated)	-17%
OC[C@@H]1[C@@H](c2ccc(F)cc2)C(c2ccccc2)=NN1c1ccccc1	-3%&6%
COc1ccc(Br)cc1CNC(=O)CCC(=O)N1CCSc2ccccc21	-8%&6%
O=C(NCCCn1ccnc1)C1CCCN(S(=O)(=O)c2ccc(F)cc2)C1 (configuration not stated)	-9%
CCN(CC)CCN1C(=O)C2C(C(=O)Nc3cccc(SC)c3)C3C=CC2(O3)C1C(=O)NC1CCCC(C)C1C (configuration not stated)	13%
COc1cccc(N2CCN(S(=O)(=O)c3ccc(-c4ccno4)cc3OC)CC2)c1	21%
O=C(N/N=C/c1ccc(OCC2COCCO2)cc1)c1ccc(Br)cc1 (configuration not stated)	-6%
CC(C)(C)C(=O)Nc1nc2c(c(=O)[nH]1)CCCC2	12%
Cc1ccc2c(c1)C1C=CCC1C(C(=O)NCCCN1CCOCC1)N2 (configuration not stated)	-2%
Cc1nnc(SCCn2c(N3CCN(Cc4ccccc4)CC3)nc3c2c(=O)[nH]c(=O)n3C)s1	-13%
COc1ccc(O)c(/C=N/NC(=S)Nc2cccnc2)c1	-12%
c1nc(N2CCOCC2)c2[nH]cnc2n1	-3%
O=Cc1cccc(OC(=O)Nc2ccccc2)c1	-9%
CC1Nc2ccc(C(=O)NC3CCCCC3)cc2NC1=O (configuration not stated)	-7%
CCNS(=O)(=O)c1c(C)cc(N2CCCC2=O)cc1C	-9%
COc1ccc(C2/C=C\CN(C(=O)c3ccccc3)[C@H](Cc3ccccc3)C(=O)N2Cc2ccc(F)cc2)cc1 (some centres not stated)	-10%
O=C(NC1CC1)C1CCN(c2nc3ccccc3s2)CC1	-1%
CCCCn1c(NCc2ccc3c(c2)OCO3)nc2ccccc21	20%
COc1cccc(CN(C(=O)c2cccc(OC)c2)C2CCS(=O)(=O)C2)c1 (configuration not stated)	10%
Cc1cc(C(=O)N/N=C\c2ccc(COc3ccc([N+](=O)[O-])cc3)o2)ccc1[N+](=O)[O-]	12%
c1ccc(CCN2CCN(c3ncnc4c3cnn4-c3ccccc3)CC2)cc1	-8%
O=C(COC(=O)COc1ccc(Br)cc1)Nc1cccnc1Cl	-10%

(listing goes on)
SMILES	VDR inhibitor
COc1ccc(C2=NOC(Cn3nc(C(=O)NCc4cccs4)cc3-c3ccccc3)C2)cc1 (configuration not stated)	-16%
CC(=O)Nc1ccc(NC(=O)CSc2nnc(-c3ccc(NS(C)(=O)=O)cc3)n2C)cc1C	-5%
CCCN(C(=O)CCOc1ccc(C(C)(C)C)cc1)c1c(N)n(Cc2ccccc2)c(=O)[nH]c1=O	2%
CC(Sc1nnnn1C)C(=O)Nc1ncc(Cl)cc1Cl (configuration not stated)	-9%
CC(NC(=O)c1cccnc1)C(c1ccccc1)N1CCN(C)CC1 (configuration not stated)	9%
Cc1cc(Br)ccc1SCC(=O)OCC(=O)Nc1ccccc1C#N	-6%
O=C(COC(=O)c1ccc(OC(F)F)cc1)NCCC1=CCCCC1	3%
COc1cc(C(=O)O/N=C2\CCCc3c2ccc(OC)c3[N+](=O)[O-])cc(OC)c1OC	-2%
CCOc1cc(N2CCOCC2)c(OCC)cc1NC(=O)C(NC(=O)c1c(F)cccc1F)C(C)C (configuration not stated)	-8%
CCCCCCn1c(CN2CCN(C)CC2)nc2c1c(=O)n(C)c(=O)n2C	0%
CN(CCCNC(=O)CCC(=O)N1CCOc2ccc(Cl)cc21)Cc1ccccc1	-20%
CCCCC(=O)Nc1nnc(S(=O)(=O)N(C)Cc2ccccc2)s1	2%
COc1ccccc1CNC(=O)C(Cc1ccccc1)NS(=O)(=O)c1ccc2c(c1)CCN2C(C)=O (configuration not stated)	-15%
COc1ccc(-n2c(-c3ccc(Cl)cc3)c[nH]c2=S)cc1	10%
Cc1c(Cc2ccccc2)c(=O)oc2cc(OC(C)C(=O)NCC3CCC(C(=O)O)CC3)c(Cl)cc12 (configuration not stated)	-4%
Cc1cc(C)c(NC(=O)CN(C)C(=O)CCC(=O)c2ccc(C)s2)c(C)c1	0%
C=CCN(C)CC/C=C1\c2ccccc2CSc2ccccc21	3%
CN(Cc1cccc(F)c1)C(=O)c1ccc(S(=O)(=O)N2CCOCC2)cc1	2%
CC1CC(C)(C)CC2(C1)NC(=O)N(CC(=O)Nc1cc([N+](=O)[O-])ccc1F)C2=O (configuration not stated)	-16%
Cc1ccc(-c2nc3cnccn3c2Nc2c(C)cccc2C)o1	?
O=C(C1CCN(S(=O)(=O)c2cccc3cccnc23)CC1)N1CCn2c1nc1ccccc12	0%
Cc1cc(-c2ccc(Cl)s2)n[nH]1	7%
Nc1nonc1-n1nnc(C(=O)N/N=C\c2ccncc2)c1CN1CCCCC1	-5%
Cc1ccc2onc(CNC(=O)Nc3ccccc3C#N)c2c1	7%
CN(Cc1nc2c(s1)CCCC2)C(=O)CCc1nnc(-c2ccccc2)o1	9%
COc1ccc(C2C(C(=O)NCc3ccco3)c3ccccc3C(=O)N2C)cc1 (configuration not stated)	2%
CCCNC(=O)C(Cc1ccccc1)NC(=O)c1ccc(C(F)(F)F)cc1 (configuration not stated)	1%
N#Cc1ccc2c(c1)NC(=O)C1CCCN21 (configuration not stated)	-8%
C[C@@H](NC(=O)c1nc[nH]c1C(=O)N(C)Cc1ccccc1)c1ccccc1	-16%
O=C(N/N=C1\CC(c2ccccc2)Oc2ccccc21)c1ccccn1 (configuration not stated)	-17%
CCOC(=O)C1=C(C)Nc2ccccc2N/C1=N\S(=O)(=O)c1ccccc1	-9%
CC(=O)NO	0%&-2%
CC1(C)CC(=O)C(C=Nc2ccccc2C(=O)O)=C(O)C1	-7%
CCc1ccc(-c2cc(C(F)(F)F)n3nc(C(=O)Nc4c(C)nn(Cc5ccccc5Cl)c4C)cc3n2)s1	-5%
Cc1cc(C)c(C)c(S(=O)(=O)N2CCN(CC(=O)NC(=O)NCc3ccccc3)CC2)c1C	-8%
O=C(CNC(=O)c1ccc(OC(F)F)cc1)NC1CCCc2ccccc21 (configuration not stated)	10%
CCC(=O)c1ccc(N2CCN(C(=O)c3ccccc3Br)CC2)c(F)c1	-11%
CC(C)c1ccc(NC(=O)CSc2n[nH]c(=O)n2C2CC2)cc1	1%
O=C(CSc1nnnn1-c1ccc(Cl)c(C(=O)O)c1)NC(c1ccccc1)c1ccccc1	-10%
CCOC(=O)c1c(NC(=O)CN2CCC(C)CC2)sc(C)c1C	-3%

A draw from above in order of number of heavy atoms, ascending.
SMILES	VDR inhibitor
O=Cc1cccc(OC(=O)Nc2ccccc2)c1	-9%
O=C(/C=C/c1cccc(F)c1)OCC(=O)N1CCCC1	-7%
CC1Nc2ccc(C(=O)NC3CCCCC3)cc2NC1=O (configuration not stated)	-7%
Cn1c(=O)n(C)c2cc(NC(=O)COc3ccccc3)ccc21	-14%
CCCCn1c(NCc2ccc3c(c2)OCO3)nc2ccccc21	20%
Cc1cc(Br)ccc1SCC(=O)OCC(=O)Nc1ccccc1C#N	-6%
O=C(O)CCC(=O)N1N=C(c2ccc(Br)cc2)CC1c1ccc(Br)cc1 (configuration not stated)	2%
C[C@@H](NC(=O)c1nc[nH]c1C(=O)N(C)Cc1ccccc1)c1ccccc1	-16%
Nc1nonc1-n1nnc(C(=O)N/N=C\c2ccncc2)c1CN1CCCCC1	-5%
O=C(COC(=O)C1CCCN1C(=O)C12CC3CC(CC(C3)C1)C2)c1ccc(Br)cc1 (configuration not stated)	-17%
COc1ccc(Br)cc1CNC(=O)CN1C(=O)c2cccnc2Oc2ccc(C)cc21	5%
O=C(CSc1nnc(Cc2cccs2)n1-c1ccccc1)NCc1ccc2c(c1)OCO2	13%
CC(=O)Nc1ccc(NC(=O)CSc2nnc(-c3ccc(NS(C)(=O)=O)cc3)n2C)cc1C	-5%
COc1ccc(C2=NOC(Cn3nc(C(=O)NCc4cccs4)cc3-c3ccccc3)C2)cc1 (configuration not stated)	-16%
CCCN(C(=O)CCOc1ccc(C(C)(C)C)cc1)c1c(N)n(Cc2ccccc2)c(=O)[nH]c1=O	2%
CCc1ccc(-c2cc(C(F)(F)F)n3nc(C(=O)Nc4c(C)nn(Cc5ccccc5Cl)c4C)cc3n2)s1	-5%

(further entries)
SMILES	VDR inhibitor
COCCCNC(=O)Cn1cc(C(=O)C2CC2)c2ccccc21	7%
Cc1ccc(/C=c2\sc3nc(-c4cccs4)nn3c2=O)o1	35µM*
O=C(Nc1ccc(Cl)cc1)c1ccco1	-16%
O=C(c1cnn2c(C(F)(F)F)cc(-c3ccc(Br)cc3)nc12)N1CCOCC1	-26%
O=C(c1ccco1)N(Cc1cccc(F)c1)C1CCS(=O)(=O)C1 (configuration not stated)	2%
CCN(CC)C(=O)CSCc1cnn(-c2ccccc2)c1-n1cccc1	9%
COc1ccccc1CCNC(=O)C(C)Sc1nc(-c2ccccc2)cc(C(F)(F)F)n1 (configuration not stated)	1%
Cc1ccc(N(C)S(=O)(=O)c2cccc(C(=O)NCCCN3CCCC3=O)c2)cc1	-24%
N#CCC(=O)Nc1ccc(C(=O)OCC(=O)c2ccc3c(c2)OCCO3)cc1	-24%
Cc1cc(=O)n2[nH]c(C)c(-c3ccccc3)c2n1	-4%
Cn1cccc1C(=O)OCC(=O)NC(=O)NC1CCCCC1	-24%
CC(C)[C@H](O)CC[C@@H](C)C1CC[C@H]2C3CC=C4C[C@@H](O)CC[C@]4(C)C3CC[C@]12C (some centres not stated)	-9%&-16%
CCc1cccc(CC)c1-n1c(SCC(=O)N2CCc3ccccc32)nc(O)cc1=O	-8%
COc1cccc(NC(=O)CN(C)C(=O)CN2C(=O)c3ccc([N+](=O)[O-])cc3C2=O)c1	-1%
CC(=O)Nc1ccc(NC(=O)CC(C)n2ccnc2)cc1 (configuration not stated)	16%
COc1cc(N/N=C/c2ccccc2O)ncn1	-18%
CN1CCN(C(=O)CCN2C(=O)/C(=C/c3ccc(F)cc3)SC2=S)CC1	6%
Cc1ccc(NC(NC(=O)c2cccs2)C(Cl)(Cl)Cl)cc1C (configuration not stated)	-13%
CCCC(=O)Nc1ccc(C)c(O)c1	-13%
CC(=O)Nc1ccc(OC(=O)c2ccccc2O)cc1	6%
CC(=O)c1ccc(OCC(O)CN(C)Cc2cccs2)cc1 (configuration not stated)	10%

Assay outcomes as filed in PubChem BioAssay.
